Screens deposited in PubChem by several laboratories.
T cruzi inh = blocks replication of Trypanosoma cruzi; actives 1.4% (n = 300,000); AID 1885; inhibition, % (no concentration beside the values); T. cruzi beta-gal in NIH3T3, luminescence, 90 h;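 active means mean inhibition across valid replicates above about 55%, limit read from the data; inconclusive means mean below that limit but half or more replicates reach it; inactive means mean below it, under half of replicates reach it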;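 further: signal also drops with host cell toxicity which is not excluded here; 0% = plate median of DMSO wells and 100% = zero luminescence signal; higher percent means less beta-gal luminescence so fewer parasites; stock transfer was 50 nL into about 50 µL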
Calb FLC = C. albicans growth modulation with fluconazole; C. albicans CaCi-2 (fluconazole-resistant clinical isolate) + fluconazole, Alamar Blue growth, 48 h; growth inhibition, % (no concentration beside the values); actives 0.57% (n = 300,000); AID 1979;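 active means most replicates above 75%; inconclusive means exactly half above 75%; inactive means most below 75%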;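 further: all wells also contain fluconazole at 8 µg/ml as a sub-toxic cotreatment; 0% = median of DMSO wells and 100% = median of geldanamycin control wells; wells of about 8 µL received 7.5 nL stock; the first replicate is given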
LANA-H2A inh = blocks KSHV LANA binding to histone H2A/H2B. inhibition, % (no concentration beside the values). cell-free LANA-H2A/H2B peptide, fluorescence polarization. AID 2629. actives 0.6% (n = 320,000); in the data active means inhibition mostly above about 10%, no sharp cut-off; inactive means mostly below about 6.7%;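 further: stock transfer was 7.5 nL into about 10 µL; 0% = median of vehicle wells and 100% = median of positive control wells; one replicate is shown; the record names a cut of 25% in any replicate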
Target sequence (Q9QR71 whole entry, looked up): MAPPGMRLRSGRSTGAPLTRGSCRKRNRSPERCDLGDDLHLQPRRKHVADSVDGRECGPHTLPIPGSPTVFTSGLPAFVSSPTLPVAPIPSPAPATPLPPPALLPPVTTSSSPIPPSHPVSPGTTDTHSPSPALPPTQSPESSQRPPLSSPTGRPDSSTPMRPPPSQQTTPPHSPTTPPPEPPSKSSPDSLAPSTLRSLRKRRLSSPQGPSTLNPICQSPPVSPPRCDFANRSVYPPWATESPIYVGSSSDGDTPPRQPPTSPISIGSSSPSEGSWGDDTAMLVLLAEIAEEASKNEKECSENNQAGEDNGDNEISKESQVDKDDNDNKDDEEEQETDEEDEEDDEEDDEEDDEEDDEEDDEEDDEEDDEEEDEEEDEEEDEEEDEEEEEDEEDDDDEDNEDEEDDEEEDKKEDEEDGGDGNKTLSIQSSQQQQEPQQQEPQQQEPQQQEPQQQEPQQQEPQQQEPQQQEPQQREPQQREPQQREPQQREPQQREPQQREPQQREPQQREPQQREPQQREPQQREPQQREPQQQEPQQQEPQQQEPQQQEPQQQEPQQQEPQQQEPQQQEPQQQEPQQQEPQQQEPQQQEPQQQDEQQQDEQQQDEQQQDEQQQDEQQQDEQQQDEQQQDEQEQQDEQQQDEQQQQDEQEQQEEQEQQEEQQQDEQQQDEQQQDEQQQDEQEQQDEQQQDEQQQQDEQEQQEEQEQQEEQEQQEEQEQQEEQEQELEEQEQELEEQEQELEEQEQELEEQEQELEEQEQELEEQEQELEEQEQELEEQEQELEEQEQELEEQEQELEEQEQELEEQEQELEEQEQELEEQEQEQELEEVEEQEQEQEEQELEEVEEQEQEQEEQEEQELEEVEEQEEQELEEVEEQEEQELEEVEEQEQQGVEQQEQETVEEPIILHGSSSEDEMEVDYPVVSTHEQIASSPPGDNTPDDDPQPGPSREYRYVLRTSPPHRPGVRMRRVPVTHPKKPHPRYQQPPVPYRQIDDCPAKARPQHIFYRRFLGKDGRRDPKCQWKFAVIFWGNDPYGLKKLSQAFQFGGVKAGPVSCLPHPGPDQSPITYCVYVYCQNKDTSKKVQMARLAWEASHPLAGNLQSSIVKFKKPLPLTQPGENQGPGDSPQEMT
Beta cell apopt = beta cell apoptosis inhibition; INS-1E cytokine-induced death, ATP luminescence, 48 h; percent of positive-control rescue, neutral wells zero; protection from apoptosis, % (test concentration not listed); actives 0.8% (n = 300,000);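 active means all replicates at 75% or more, or half of them and the mean; inconclusive means half reach 75% but not the mean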;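 further: 0% = cytokine-treated negative control wells and 100% = positive control rescue; higher means more ATP so stronger rescue from cytokine killing; wells of about 40 µL received 100 nL stock; the first replicate is given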
MLL AF4-AF9 inh = MLL-AF4/AF9 protein interaction inhibition. AlphaScreen, biotin-AF4 peptide binding to FLAG-AF9. inhibition, % at 10 µM. actives 0.47% (n = 350,000). AID 651704;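 active means every replicate reaching a set inhibition limit, whatever the replicate mean, cut at about 25% in these data; inconclusive means mean inhibition reaches that limit but some replicates miss it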;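 further: 0% = plate neutral control median and 100% = total signal loss; the record names both 10 and 1 µM as test concentration; the first replicate is given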
RanGTP-Impb inh = inhibitors of RanGTP-importin-beta interaction, primary screen, biochemical, FRET, CFP-Ran, YFP-importin-beta, homogeneous; inhibition, % (test concentration not listed); actives 1.1% (n = 300,000); AID 2216; cell-free CFP-Ran/YFP-importin-beta FRET ratio;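 active means most replicates above 15%; inconclusive means exactly half above 15%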;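 further: 0% = DMSO wells and 100% = Ran loaded with GDP instead of GTP; wells of about 40 µL received 100 nL stock; the first replicate is given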
Vif TR-FRET = HIV-1 Vif–A3G interaction blockers – biochemical, TR-FRET, GST-Vif 1-94, biotin-A3G peptide, dose response retest, primary screen (AID 1117319). one-dose inhibition, %; IC50 in µM for titrated hits. actives 0.57% (n = 260,000). TR-FRET GST-Vif / biotin-A3G peptide binding; higher % means a stronger effect; test concentration not given here; strong numbers were not always called active;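 active means above the screen mean plus three standard deviations and confirmed in dose response; inconclusive means results disagree or hit not tested in dose response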;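 further: Vif residues 1-94 fused to GST binding biotinylated APOBEC3G peptide 110-148; 0% = full assay without inhibitor and 100% = GST in place of GST-Vif; retest series ran down from 100 µM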
A1 inh = inhibitors of the anti-apoptotic protein A1, read as caspase activation; actives 0.066% (n = 330,000); caspase activation, % (concentration not given with the values); AID 2462; MEF A1-2A-BIM cells, Caspase-Glo 3/7 luminescence, 3 h; percent of clofoctol response, vehicle zero;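 active means over half of replicate activation scores above 10%, or exactly half above 10 with the replicate mean above 10; inconclusive means replicate mean below 10 yet half the replicates above 10; inactive means over half of replicates below 10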;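 further: wells of about 30 µL received 50 nL stock; many hits fall short of the cut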
* marks the source's active call; other numbers are inactive results; ? = inconclusive; / = not tested or not shown.

SMILES	T cruzi inh	Calb FLC	LANA-H2A inh	Beta cell apopt	MLL AF4-AF9 inh	RanGTP-Impb inh	Vif TR-FRET	A1 inh
O=C(COc1ccccc1Cl)Nc1ccc(C(=O)c2ccc(C(=O)O)cc2)cc1	1	0	5.1	-12	-1.3	-0.3	4%	1.1
CN(C)C(=O)CSc1nc2cc(S(=O)(=O)N3CCOCC3)ccc2o1	/	/	8.9	0	-0.5	/	-7%	-0.2
Cc1ccc(NC(=O)CSCc2nc3c(nnn3Cc3ccc(F)cc3)c(=O)[nH]2)c(C)c1	/	5	6.8	-6	-9.5	/	/	-0.5
Cc1ccc(C(=O)Nc2cccc([N+](=O)[O-])c2)cc1S(=O)(=O)Nc1ccc(C(=O)O)cc1	-18	12	-1.3	-4	-0.3	4.8	-5%	-1.8
COc1ccc(/C=C2\C(=O)ON=C2c2ccccc2)cc1OC	5	7	-3.0	/	2.8	-2.3	/	0.1
CC(=O)Nc1ccc(S(=O)(=O)NC2=NCN(c3ccc([N+](=O)[O-])cc3)CN2)cc1	-19	45	-6.2	-3	-4.3	2.1	4%	0.5
Cc1ccnc(SCC(=O)Nc2cc(C)on2)n1	2	-5	2.3	-4	-4.5	-1.8	/	?
O=C(CCS(=O)(=O)c1cccc2nonc12)NCc1ccc(Cl)cc1	-1	1	-4.1	3	2.7	1.1	-6%	0.0
N#Cc1cccc(C#N)c1NCC1CCCO1 (stereo not drawn)	-7	8	1.7	-4	-8.0	1.5	4%	0.3
O=C(COC(=O)CCc1ccc(S(=O)(=O)N2CCOCC2)cc1)Nc1cccc(Cl)c1	-7	13	-1.8	-2	-1.5	0.3	-5%	0.1
Cc1ccc(CNC(=O)CO/N=C/c2ccc3c(c2)OCO3)cc1	0	-25	4.6	2	-2.2	-1.8	0%	-0.8
CCOC(=O)c1c(NC(=O)CSc2nnc(-c3cccnc3)n2Cc2ccco2)sc(C)c1C	1	10	-3.5	6	/	4.1	-8%	0.2
Cc1cc([N+](=O)[O-])cc2c1NC(c1ccccn1)C1CC=CC21 (stereo not drawn)	-17	8	1.2	-4	-0.1	-0.2	3µM*	0.2
COc1cccc(/C=N/NC(=O)CSc2nnc(C)n2-c2ccccc2)c1O	-17	18	-0.2	11	/	-0.6	11%	-0.8
O=[N+]([O-])c1ccccc1CN1CCN(Cc2ccccn2)CC1	-6	-1	1.9	2	0.5	1.6	6%	-0.7
N#Cc1ccc(OCC(=O)NC2CCCCCC2)cc1	/	/	0.8	5	-1.2	/	-6%	2.2
Cc1cc(C)nc(SCC(=O)c2ccc(F)cc2F)n1	-7	-2	12	3	-2.9	3.3	/	-0.9
CC(C)(C)NC(=O)NC(=O)COC(=O)Cn1cnc2ccccc2c1=O	-10	-4	-3.9	5	1.1	-1.0	-14%	0.3
COc1ccc(C(=O)N/C(=C\c2ccccc2)C(=O)NCCCn2ccnc2)cc1	14	3	7.0	-1	-4.6	6.7	/	0.4
COC(=O)c1nnn(-c2nonc2N)c1CSc1nnc(C)s1	-12	-16	-5.7	-4	-1.9	-3.1	-2%	-0.2
CCOc1cc(/C=C2\COc3ccccc3C2=O)cc(Br)c1OCC(=O)N(C)C	-17	-16	4.1	100*	5.9	2.3	/	1.8
COc1ccc(NC(=O)C(CCCCNC(=O)OC(C)(C)C)NC(=O)OCc2ccccc2)cc1 (stereo not drawn)	3	1	-0.8	-5	/	0.9	2%	-0.2
CC(C)(C)NC(=O)C(OC(=O)c1ccco1)c1ccccc1F (stereo not drawn)	-2	-20	1.2	/	-1.9	-2.6	2%	-0.1
CCn1cc(CN2CCN(Cc3ccc(C)o3)C(CCO)C2)c2ccccc21 (stereo not drawn)	6	-6	0.8	-6	3.5	-2.0	/	-0.1
COc1cccc(Oc2nnnn2-c2ccccc2)c1	17	-14	0.4	-5	/	11	-1%	0.3
Cc1cc(C(=O)OCC(=O)Nc2cccc([N+](=O)[O-])c2)c(C)o1	/	/	-0.4	-7	4.4	/	/	-0.6
O=C1CCCCN1CC(=O)N1CCCC(Nc2ccc(F)c(F)c2)C1 (stereo not drawn)	0	4	-2.0	-7	-0.6	-0.1	/	0.0
S=C(Nc1ccc(Cl)cc1)N1CCCCC1	-13	14	-2.3	-2	/	-0.7	-9%	1.2
C/C=C\C(=O)Nc1cccc(C2=NOC3(C2)C[C@H](C(N)=O)N(C(=O)/C=C/CC)C3)c1 (stereo partly drawn)	-11	2	-11	1	-14	-5.2	6%	-0.3
O=C(CN(Cc1ccc(Cl)cc1)S(=O)(=O)c1ccccc1)NCC1CCCO1 (stereo not drawn)	6	-6	-2.3	7	-1.8	0.4	/	-0.1
Cc1c(C(c2ccccc2O)c2c(C)n(C)n(-c3ccccc3)c2=O)c(=O)n(-c2ccccc2)n1C	5	41	0.1	2	-1.3	-4.2	5%	?
Cc1cc(S(=O)(=O)Nc2cccc(C(=O)O)c2)c(C)c(S(=O)(=O)c2ccc(Cl)cc2)c1	-7	2	-3.6	-2	0.5	0.5	/	-0.9
CC1CCCCN1C(=O)COc1ccc(F)cc1 (stereo not drawn)	-10	-4	-0.1	-1	-2.2	-1.9	?	0.0
CC(C)C[C@H](NC(=O)N1CCn2c1nc1ccccc12)C(=O)N[C@@H](C(=O)O)c1ccccc1	0	1	-4.8	-11	-0.4	1.8	/	-0.1
Cc1cc(OCC(=O)NCc2cccnc2)ccc1[N+](=O)[O-]	-5	-3	2.8	0	1.7	-1.2	/	1.4
Cc1ccc(-c2nnc(SCc3ccccc3F)o2)cc1	12	-8	-17	-4	/	1.8	-4%	-2.5
CNc1ncc(C(=O)c2ccccc2)s1	-33	-20	4.4	-3	/	2.1	9%	0.5
O=c1cc(/C=C/c2ccccc2)oc2ccccc12	-4	0	1.2	2	/	-1.9	-2%	-4.4
O=C(CN1C(=O)CSCC1=O)Nc1ccc2c(c1)OCO2	-5	-29	3.1	-9	/	11	/	-0.6
CN(N)c1nc(N2CCCC2)nc(N2CCCC2)n1	-10	5	1.1	-2	0.3	-3.6	/	0.2
CC(C)c1ccc(C2c3[nH]c4ccccc4c3C[C@H]3C(=O)N(c4ccccc4C(=O)N4CCC(C(=O)O)CC4)C(=O)N23)cc1 (stereo partly drawn)	7	5	1.4	-4	-0.2	-3.0	/	-0.2
CCC(C)NC(=O)N[C@@H](Cc1ccccc1)C(=O)O (stereo partly drawn)	-5	-10	3.8	-8	/	-0.2	27%	0.4
COc1ccc(NC(=O)COC(=O)c2cccn2C)cc1S(=O)(=O)N1CCCCC1	/	/	-0.2	7	2.3	/	17%	-0.2
Cc1cc(SC(C)C(=O)Nc2ncc(Cl)cc2Cl)nc2ccccc12 (stereo not drawn)	0	8	-1.7	-3	4.9	-0.6	-98%	0.3
Cc1c([N+](=O)[O-])c([N+](=O)[O-])nn1CC(=O)NCCc1ccccc1	46	35	-3.8	-1	1.4	3.2	10%	0.1
CCOC(=O)c1ccc2c(c1)nc(SCC(=O)NC(C)C)n2CC	-25	1	2.8	2	/	3.1	8%	0.1
CC(C)CN(CC(C)C)c1nnc(N)s1	-8	-3	1.2	-6	3.2	-4.0	-6%	1.1
CCO[C@H]1OC(C(=O)O)=C[C@@H](C)[C@@H]1CCCO	-15	-1	-2.6	0	-1.9	5.9	-2%	-0.7
COc1ccc(CC(=O)NNC(=O)c2cnccn2)cc1	-2	14	-1.2	-8	0.5	0.0	/	0.8
COc1ccccc1N1CCN(C2CCCN(Cc3ccc(Cl)cc3)C2)CC1 (stereo not drawn)	38	-9	-5.0	1	14	2.9	/	1.4
N#Cc1ccccc1NC(=O)COC(=O)CCc1ccccc1	3	-2	3.1	-1	-3.9	-5.5	/	-0.5
O=S(=O)(NC1=NCCC1)c1ccc(F)cc1F	0	5	8.0	2	-0.7	-0.5	0%	-0.1
COc1ccc(/C=C(\NC(=O)c2ccccc2)C(=O)N/N=C/c2ccncc2)cc1	-11	-3	-1.7	-9	-0.3	0.7	1%	1.5
CC(=O)Nc1ccc(N/C=C/C(=O)c2ccc(C)o2)cc1	4	43	-1.3	-1	-90	3.3	29%	-1.8
COC(=O)Cc1ccc2sc(-c3ccccc3)nc2c1	-22	1	-2.0	4	/	1.8	-5%	-8.7
CSc1cc(C)c(OCC(=O)Nc2ccc(NC(C)=O)cc2)c(C)c1	3	-25	-1.0	-6	-0.8	0.8	11%	0.8
CCOC(=O)C(NC(C)=O)(Nc1ccc(S(=O)(=O)Nc2cc(C)on2)cc1)C(F)(F)F (stereo not drawn)	-9	-6	2.4	0	/	-3.3	9%	0.9
Cc1ccc(-c2nc(NC(=O)CSc3cc(C)c4ccccc4n3)ns2)cc1	10	4	-3.5	-4	-3.4	-7.0	1%	-1.7
C[C@H](NC(=O)[C@H]1N2C(=O)c3ccccc3C2SC1(C)C)C(=O)N1CCC[C@H]1CO (stereo partly drawn)	14	-4	-4.6	-3	-1.7	?	/	0.2
O=C(CSc1ncn[nH]1)Nc1ccccc1C(=O)O	/	-3	-2.7	-5	/	2.2	2%	-0.4
Additional structures follow.
SMILES	T cruzi inh	Calb FLC	LANA-H2A inh	Beta cell apopt	MLL AF4-AF9 inh	RanGTP-Impb inh	Vif TR-FRET	A1 inh
Cc1ccc(N/C=C2\C(=O)N(c3ccc(F)cc3F)C(c3cccnc3)S2(=O)=O)cc1 (stereo not drawn)	46	1	-1.1	-1	/	?	13%	0.0
CC(NCC(=O)Nc1ccccc1C(=O)NC1CC1)c1cccc(C(F)(F)F)c1 (stereo not drawn)	/	/	11*	-2	-0.6	/	-4%	1.6
NC(=O)C1CC(=O)N(c2ccc(OCC(=O)Nc3ccc(Cl)cc3)cc2)C1 (stereo not drawn)	-3	0	-1.3	2	0.4	-0.7	/	-0.2
CC(=O)Nc1c(O)nc(SCC(=O)Nc2nnc(SCc3ccccc3)s2)[nH]c1=O	-16	3	-2.1	/	-1.9	-3.4	15%	-0.8
CCCn1c(-c2ccc(F)cc2)cnc1SCC(=O)O	-7	2	7.0	-2	/	1.4	0%	0.0
O=C(NCCC1CCCCN1S(=O)(=O)c1ccc(F)cc1)C(=O)NCc1cccnc1 (stereo not drawn)	-14	-3	-0.5	/	0.8	-2.0	/	0.2
Cc1ccc([N+](=O)[O-])cc1S(=O)(=O)Nc1ccc(C(=O)NCC2CCCO2)cc1 (stereo not drawn)	/	/	2.8	2	-2.1	/	/	-0.1
CCOC(=O)Nc1sc(C(=O)N(C)C)c(C)c1C(=O)OCC	-21	13	-7.5	-3	/	5.2	14%	-0.2
CCOc1ccccc1CNC(=O)CN1C(=O)CSc2ccc(S(=O)(=O)N3CCOCC3)cc21	-4	1	0.9	2	0.2	-0.1	/	-0.6
O=C(CN1C(=O)NC2(CCc3ccccc3C2)C1=O)Nc1ccc(Cl)cc1F (stereo not drawn)	-1	-15	-3.6	-5	0.5	1.3	/	-0.9
COc1ccc(C(C)=O)cc1COc1ccc(F)cc1	3	0	3.0	-2	-2.7	7.8	-8%	1.3
Cc1csc(-c2cccnc2)n1	1	21	-4.7	-3	/	0.1	10%	-0.4
CCN(CC)CCn1c(NS(=O)(=O)c2ccc(Cl)cc2)nc2ccccc21	-4	3	3.0	2	4.5	0.9	-11%	1.2
O=C(CSc1nc2ccccc2o1)c1ccc2c(c1)OCCO2	/	/	-4.7	-7	/	/	-17%	0.7
